CSC inhib = blocks cancer stem cells | AID 2717 | inhibition, % at 7.5 µM | cancer stem cell-like cells viability, luminescence | hit rate 1.1% among 300,000;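 active = mean at 75% or more and at least half the replicates too; inconclusive = mean and replicates disagree; tested in HMLE shEcad cells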;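 note: 0% = median of negative and 100% = median of positive control wells; the first replicate is given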
eIF4H inh = inhibitors of RNA binding by human eIF4H. Q15056. eIF4H fluorescence polarization binding assay. inhibition, % at 35 µM. hit rate 0.94% among 290,000;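 active = 50% or more with normal probe brightness, or confirmed in later tests; inconclusive = above 50% with abnormal brightness, or retests that disagree; inactive = below 50% or failed in later tests; about a fifth of its hits are not listed in these tables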;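 note: calls also rest on retests at 20 µM and on dose response follow-up; 0% = protein and probe with vehicle and 100% = probe without protein; strong numbers were not always called active; many hits fall short of the cut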
PABP polyA inh = PABP-poly(A) binding inhibition; P11940; PABP-poly(A) RNA binding, fluorescence polarization; inhibition, % at 35 µM; hit rate 1% among 290,000; AID 2014;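 active = 50% or more with normal probe brightness, or confirmed in later tests; inconclusive = above 50% with abnormal brightness, or retests that disagree; inactive = below 50% or failed in later tests; about a fifth of its hits are not listed in these tables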;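 note: calls also rest on retests at 20 µM and on dose response follow-up; controls were probe without protein and protein plus probe with vehicle; some compounds called inactive have numbers as strong as hits; many hits fall short of the cut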
Target sequence (P11940 whole entry, looked up): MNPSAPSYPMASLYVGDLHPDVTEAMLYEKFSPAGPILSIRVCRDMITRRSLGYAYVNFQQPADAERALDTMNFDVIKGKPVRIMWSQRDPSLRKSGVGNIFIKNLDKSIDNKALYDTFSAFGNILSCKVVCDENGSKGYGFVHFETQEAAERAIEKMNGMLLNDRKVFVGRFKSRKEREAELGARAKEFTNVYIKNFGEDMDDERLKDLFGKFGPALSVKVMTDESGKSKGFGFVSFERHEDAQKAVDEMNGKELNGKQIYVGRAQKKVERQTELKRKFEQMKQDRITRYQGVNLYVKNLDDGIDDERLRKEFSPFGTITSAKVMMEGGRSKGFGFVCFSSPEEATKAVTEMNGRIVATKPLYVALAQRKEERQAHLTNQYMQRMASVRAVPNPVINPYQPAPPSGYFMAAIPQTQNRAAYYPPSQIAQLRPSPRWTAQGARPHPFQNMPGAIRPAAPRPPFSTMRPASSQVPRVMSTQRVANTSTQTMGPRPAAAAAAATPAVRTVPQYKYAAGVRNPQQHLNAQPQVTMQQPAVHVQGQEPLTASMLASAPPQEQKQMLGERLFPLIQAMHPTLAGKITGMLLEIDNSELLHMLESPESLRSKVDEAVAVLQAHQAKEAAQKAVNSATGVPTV
UUG fidelity = modulators of start codon recognition fidelity in yeast; hit rate 0.13% among 350,000; activity score, % at 18.7 µM; S. cerevisiae UUG-firefly luciferase reporter, luminescence/redox ratio;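 active = replicate mean at a twofold rise or more, about +100% in these data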;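 note: firefly luciferase made from a UUG start codon reports start codon fidelity; reporter light over untreated wells divided by growth signal over untreated wells; some hits fall short of that in this replicate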
MT1-MMP act inh = MT1-MMP (human) activation inhibition; P50281; HT1080 RFP-PRO-GFP cells, GFP/RFP ratio fluorescence, overnight; percent of plate control window, DMSO zero; GFP/RFP ratio change, % at 20 µM; hit rate 0.061% among 360,000;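 active = GFP/RFP ratio change of at least 30% with cell ATP level not reduced by more than half and red fluorescence within 50% of control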; note: strong numbers were not always called active
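Read-out: GFP/RFP fluorescence ratio; Test system: RFP-PRO-GFP reporter HT1080 cells; Compound dosing: single-point 20 µM compound, 1% DMSO; Times: overnight compound exposure at 37 °C.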
Env fusion inh = blocks HIV Env-driven cell-cell fusion. inhibition, % at 12.3 µM. HeLa-JRFL Env/CEM21 cell fusion, luciferase. AID 651610. hit rate 1.1% among 360,000;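 active = mean replicate inhibition score of at least 50 and every replicate individually at or above 50; inconclusive = only one of the two criteria met; inactive = mean below 50 and not all replicates reaching 50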;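 note: 0% = plate neutral controls and 100% = maraviroc near 300 nM; one replicate is shown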
Rce1 inh = inhibitors of yeast Ras-converting enzyme | yeast membranes, quenched prenylated peptide cleavage fluorescence | calls only | hit rate 0.27% among 290,000;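 active = fall in fluorescence gain of 50% or more versus controls, with final raw signal at or below 3038400; inconclusive = same 50% fall but final raw signal above 3038400; inactive = fall in fluorescence gain under 50%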;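 note: plate controls were neutral control wells for no effect and wells lacking membranes for full effect; tested at 10 µM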
Target sequence (Q03530 whole entry, looked up): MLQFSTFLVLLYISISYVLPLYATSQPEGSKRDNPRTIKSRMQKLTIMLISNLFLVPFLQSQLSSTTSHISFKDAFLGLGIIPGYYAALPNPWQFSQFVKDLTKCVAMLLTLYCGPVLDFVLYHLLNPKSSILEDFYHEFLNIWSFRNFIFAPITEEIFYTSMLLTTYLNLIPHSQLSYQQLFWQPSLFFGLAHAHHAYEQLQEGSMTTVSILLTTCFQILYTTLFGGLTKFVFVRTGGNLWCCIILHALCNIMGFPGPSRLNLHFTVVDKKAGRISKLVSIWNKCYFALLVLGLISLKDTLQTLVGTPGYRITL
MT1-MMP act inh RFP = recorded beside MT1-MMP act inh, whose call it bears; RFP signal change, %; measured here: RFP expression control read;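 0 = vehicle wells; hits needed this value within 50% of zero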
Starred values were filed as active, the others as inactive; i = inactive; u = inconclusive; x = no result given; + = active, no number; & = joins results of further samples.

entry	SMILES	CSC inhib	eIF4H inh	PABP polyA inh	UUG fidelity	MT1-MMP act inh	MT1-MMP act inh RFP	Env fusion inh	Rce1 inh
1	Cc1ccc(NC(=O)C2=C(C(=O)O)CCCC2)cc1F	5	1	-6	-15	-1	-1	8	i
2	O=C(O)C1C2C=CC3(O2)C1C(=O)N1c2ccccc2C2OCCC2C13 (stereo unspecified)	-10	23	21	-7	0	5	-53	i
3	CC(=O)c1c(C)[nH]c(C(=O)OCC(=O)NNC(=O)c2ccc([N+](=O)[O-])cc2)c1C	-18	x	x	-13	4	5	x	x
4	COc1cc(OC)c(OC)cc1/C=N/NC(=O)c1ccc2nc[nH]c2c1	-8	1	-4	x	-1	0	11	i
5	CCOc1ccc(NC2=NCCC(=O)N2Cc2cccs2)cc1	x	-3	4	4	2	1	-33	i
6	CCOc1ccc(Cc2nc(N)nc(N)n2)cc1	-9	11	-2	-19	-1	-2	-1	x
7	CN1C(=O)C(CC(=O)Nc2ccc(Cl)cc2)N(Cc2ccco2)C1=S (stereo unspecified)	-6	1	20	x	-1	0	-1	i
8	CCCCc1cc(=O)oc2c(C)c(OCC(=O)N3CCCC3)ccc12	12	-2	-4	6	2	-3	17	i
9	Cc1cc2c3c(c1)C1(C(=O)N3C(C)(C)CC2C)C(C#N)=C(N)Oc2cc(O)ccc21 (stereo unspecified)	-9	0	-8	-1	-12	-7	20	i
10	CC1=C(C(N)=O)C(c2cccs2)n2nc(-c3cccc(Cl)c3)nc2N1 (stereo unspecified)	-1	-8	-3	-3	-2	-7	x	i
11	O=C(CCn1c(=O)oc2ccccc21)N1CCN(C(c2ccccc2)c2ccccc2)CC1	9	-4	0	3	-8	-7	14	i
12	Cc1cccc(CS(=O)(=O)Cc2ccc(C(=O)NCCCN3CCOCC3)o2)c1	x	-6	-2	x	0	3	x	i
13	COc1ccc(/C=C2\CCOC2=O)cc1	6	7&-5	-9&-5	-19	0	2	6	i
14	CCOCc1cc(C)[nH]c(=O)c1C#N	-15	3	5	-20	-1	3	x	+
15	Cc1nn(-c2ccccc2)c(Cl)c1CN(C(=O)CCl)c1ccc(Cl)cc1	51	4	14	-11	-23	-22	-15	i
16	O=S(=O)(c1cccc(C(F)(F)F)c1)N1c2ccccc2-n2cccc2C1c1cccnc1 (stereo unspecified)	x	x	x	-8	-4	-11	35	x
17	O=C(NC(Cc1ccccc1)C(=O)O)OCc1ccccc1 (stereo unspecified)	7	-3	11	-2	5	2	0	i
18	CCn1c(=O)c2c(nc3n2CCCN3c2cccc(C)c2)n(C)c1=O	-6	-5	1	x	0	1	9	i
19	CCCCN1CCCCC1(C)C(=O)NCc1cccs1 (stereo unspecified)	x	x	x	-10	1	3	2	x
20	CCn1c(Cn2nnc(-c3ccccc3)n2)nnc1SCC(=O)Nc1ccc(N(C)C)cc1	-16	-1	-13	-3	1	3	x	i
21	O=S(=O)(Cc1ccc(Cl)cc1)c1ncc(CO)n1Cc1ccccc1	-9	-1	-12	-4	3	-3	-6	i
22	CC(=O)c1cccc(N(CC(=O)Nc2ccc(S(=O)(=O)N3CCOCC3)cc2)S(C)(=O)=O)c1	-3	-6	-6	-3	0	2	-14	i
23	CCOC(=O)c1c(C)n(-c2ccc(C)cc2)c2c(CC(C)=O)c(Br)c(OC)c(O)c12	x	2	3	-16	5	9	x	i
24	COc1ccccc1NS(=O)(=O)c1cccc(C(=O)NNC(=O)C(NC(N)=O)C(C)C)c1 (stereo unspecified)	2	-5	-3	x	8	-5	10	i
25	CN(C)c1cccc(CNC(=O)c2ccc3sc([C@H]4C[C@H](O)[C@@H](CO)O4)nc3c2)c1	x	x	x	-8	0	2	-18	x
26	O=C(NN1C(=O)c2ccccc2NC1c1ccccn1)c1ccc([N+](=O)[O-])cc1 (stereo unspecified)	-1	9	9	-24	-1	-16	5	i
27	O=S(=O)(Oc1ccccc1C(=S)N1CCOCC1)c1ccc(Cl)cc1	3	1	-6	-19	3	1	13	x
28	O=C(CSc1nnc(-c2cccs2)o1)NCc1ccco1	-12	-6	49	x	1	6	-9	i
29	Cc1[nH]nc(N2CCCCCC2)c1[N+](=O)[O-]	3	-11	-4	x	2	3	-65	i
30	Cc1sc2ncnc(OCc3nnc(-c4cccs4)o3)c2c1C	-1	0	6	x	1	1	15	i
31	CC(OC(=O)CNC(=O)c1cccs1)C(=O)Nc1ccc(S(N)(=O)=O)cc1 (stereo unspecified)	-6	x	x	-10	3	4	i	i
32	O=C1C2CCCCN2C(=O)N1CCN1CCN(c2cccc(Cl)c2)CC1 (stereo unspecified)	x	x	x	2	-3	-6	-12	x
33	COC(=O)CN1C(=O)[C@H]2[C@@H](/C=C/c3ccccc3)N3C(=O)CN(CCO)C(=O)[C@@]3(Cc3ccccc3)[C@H]2C1=O	-29	7	3	-3	3	5	23	i
34	CCCCCN(C(=O)CCC(=O)OCC(=O)N(C)Cc1ccc(C)cc1)c1c(N)n(CCCC)c(=O)[nH]c1=O	2	-3	0	-2	-2	0	10	i
35	O=C(CNC(=O)c1ccc2c(c1)OCCO2)N=Nc1c(O)[nH]c2ccccc12	-15	-20	-6	-11	0	0	-4	i
36	Cn1c(=O)[nH]c(=O)c2c1nc(CN(Cc1ccccc1)Cc1ccccc1)n2CCN1CCOCC1	-17	-7	-8	-17	-3	-1	-57	i
37	CCCCc1ccc(NC=C2C(=O)OC3(CCCCC3)OC2=O)cc1	10	0	-7	x	3	-4	-3	i
38	Cc1ccc(OCC(=O)N2CCC(N3CC(C)CC(C)C3)CC2)cc1 (stereo unspecified)	-4	-2	7	-13	2	5	-25	x
39	O=c1c(CN2CCN(Cc3ccccc3)CC2)coc2ccc(Cl)cc12	-4	0	20	-16	4	2	-6	i
40	CCCCCCN1C=C/C(=C\C=C(C#N)C#N)c2ccccc21	43	4	-13	x	27	67	0	i
41	O=C(Nc1ccccc1Br)c1cc(=O)c2ccccc2o1	-1	-8	2	-9	-2	0	-24	i
42	CCN(c1ccccc1)S(=O)(=O)c1cc(C(=O)OC(C)C(=O)Nc2ccc3c(c2)OCCO3)ccc1C (stereo unspecified)	8	u	u	x	2	-10	8	i
43	CN1CCc2c(sc3c2C(=O)NC(c2ccco2)N3)C1 (stereo unspecified)	7	50	45	-18	-20	6	-16	x
44	COc1cccc(N=C(N)N)c1	-5	-4	-2	-11	1	2	-2	x
45	C#CCOCCOCCOCCNc1nc(N2CCN(C(=O)[C@H](CCCCN)n3cc(CC(C)O)nn3)CC2)nc(N2CCN(C(=O)[C@H](Cc3ccc(O)cc3)n3cc(CCO)nn3)CC2)n1 (stereo partly specified)	x	x	x	-3	0	1	-14	x
46	O=C(Nc1ccc(F)cc1)C1C(c2ccccc2)C1(Cl)Cl (stereo unspecified)	61	0	4	x	1	-5	x	i
47	Cc1ccc(-c2n[nH]c(=O)c3ccccc23)cc1S(=O)(=O)NC(C)(C)C	-4	-4	1	x	8	-2	13	i
48	S=c1[nH]nc(-c2ccc3ccccc3n2)n1-c1cc(Cl)cc(Cl)c1	-5	3	15	x	4	-4	-2	i
49	O=C(CNS(=O)(=O)c1ccccc1)OCc1cccc([N+](=O)[O-])c1	1	2	1	x	5	3	-8	i
50	CCCn1c(=NC(=O)CS(=O)(=O)c2ccccc2)sc2cc(S(C)(=O)=O)ccc21	0	x	x	-10	1	-2	4	i
51	Cc1cc(C(=O)NCc2ccc3c(c2)OCO3)n(-c2ccccc2)n1	-6	-10	-4	1	1	2	-14	i
52	CCN(CC)c1ccc(/C=N/NC(=O)c2cccc(S(=O)(=O)N3CCOCC3)c2)cc1	-4	-8	-2	-21	-2	-6	21	i
53	Cc1ccc(OCC(=O)N2N=C(c3cccnc3)CC2(O)C(F)(F)F)cc1C (stereo unspecified)	-6	1	4	x	-2	-1	0	i
54	CN(C)CCNC(=O)Cc1ncc(C(F)(F)F)cc1Cl	1	3	-6	-14	0	-1	-11	i
55	Cc1cc(=O)[nH]c(SCc2cccc3ccccc23)n1	-6	3	1	-8	0	0	-3	i
56	Cc1oc(-c2ccccc2F)nc1CS(=O)(=O)CC(=O)NCc1ccco1	-6	2	-3	16	3	3	-18	i
57	CC(C)C[C@@H](CNCC(=O)[C@H](C)NC(=O)c1[nH]cnc1C(=O)N[C@H](CN)CC(C)C)NC(=O)c1nc[nH]c1C(=O)N[C@@H](C)C(=O)O	x	x	x	7	3	7	12	x
58	O=C(CC(=O)Nc1cccc(Cl)c1)N/N=C\c1ccccc1	-5	2	-2	-21	3	-3	x	i
59	CCN(CC)S(=O)(=O)c1ccc2oc(SCc3ccc(F)cc3)nc2c1	27	-8	-1	-9	-11	-27	x	i
60	COc1ccc(NS(=O)(=O)c2ccc(N3CCCC3)c(NC(=S)Nc3cccc(S(=O)(=O)N(C)C)c3)c2)cc1	-11	-4	3	x	x	x	x	i

Additional records follow:
entry	SMILES	CSC inhib	eIF4H inh	PABP polyA inh	UUG fidelity	MT1-MMP act inh	MT1-MMP act inh RFP	Env fusion inh	Rce1 inh
61	O=C(O)c1ccccc1C(=O)Nc1ccc(Oc2ccc3ccccc3c2)cc1	44	-3	0	-12	-14	-17	-8	i
62	Cc1cc(OCC(=O)Nc2cccc(S(=O)(=O)N3CCCCC3)c2)ccc1Cl	-4	x	x	-19	11	-10	x	x
63	Cn1c(N)c(C(=O)COC(=O)CCC(=O)c2cccs2)c(=O)n(C)c1=O	-4	4	12	-2	0	4	-94	i
64	CN(c1ccccc1)S(=O)(=O)c1nnc(NC(=O)COc2ccccc2F)s1	-4	8	0	-21	5	-5	3	i
65	O=C(CN1CCC(c2nc3ccccc3[nH]2)CC1)NCc1ccc2c(c1)OCO2	17	-6	-12	-10	6	-5	-100	i
66	Cc1ccc(NC(=O)[C@H](Cc2c[nH]c3ccccc23)NC(=O)[C@@H]2Cc3ccccc3CN2)c(C)c1	-13	-6	-2	8	0	-5	x	x
67	Cc1cc(C)n(-c2ccc(Cl)c(Cl)c2)n1	-5	4	-17	-19	-1	5	-6	x
68	O=C(c1cc(-c2cccc(Cl)c2)nc2ccccc12)N1CCCC1	6	2	2	-3	-1	-5	9	i
69	Cc1ccc(S(=O)(=O)NCC2CCCO2)cc1[N+](=O)[O-] (stereo unspecified)	-10	-4	1	-18	-4	-5	21	i
70	COc1ccc(CCN2C(=O)C(O)=C(C(=O)c3ccco3)C2c2cccs2)cc1OC (stereo unspecified)	-2	-11	-2	-4	0	7	x	i
71	O=C(Nc1ccnn1C1CCN(Cc2ccc(CO)o2)CC1)c1ccccc1Cl	-7	-3	4	-9	1	1	x	i
72	COc1cccc(CNC(=O)COC(=O)/C=C/c2ccc(SC)cc2)c1	-5	x	x	-4	1	0	-5	x
73	CC(=O)Nc1ccc(C2=NNC(=NCC3CCCO3)SC2)cc1 (stereo unspecified)	-11	-4	5	-16	1	1	-37	x
74	O=C(NCc1ccco1)c1sc2cc(F)ccc2c1Cl	8	2	1	-18	-4	1	-102	i
75	Cc1ccc(S(=O)(=O)N(CC(=O)NCc2ccco2)c2ccccc2C)cc1	x	10	3	0	0	-5	6	i
76	CC(C)Cn1cc(C(=O)NCC2CCCO2)c2c3ccccc3n(C)c2c1=O (stereo unspecified)	-6	1	-8	19	-5	-2	11	i

Limited to MT1-MMP act inh (two entries from above):
| nr | structure | MT1-MMP act inh |
| --- | --- | --- |
| 73 | CC(=O)Nc1ccc(C2=NNC(=NCC3CCCO3)SC2)cc1 (stereo unspecified) | 1 |
| 74 | O=C(NCc1ccco1)c1sc2cc(F)ccc2c1Cl | -4 |
